GIV-Gai inh: blocks GIV peptide binding to rat Galpha-i3 | P08753 | Galpha-i3/FITC-GIV peptide fluorescence polarization, 90 min; hits give low values; scaled: aluminum fluoride 0%, vehicle 100% | percent of control (FP), % (concentration not given with the values) | 210,000 compounds, 0.42% hits;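 active means replicate mean at 85% of control or lower, very high polarization wells dropped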;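 further: wells of about 15 µL received 100 nL stock; the first replicate is given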
Target sequence (P08753 whole entry, looked up): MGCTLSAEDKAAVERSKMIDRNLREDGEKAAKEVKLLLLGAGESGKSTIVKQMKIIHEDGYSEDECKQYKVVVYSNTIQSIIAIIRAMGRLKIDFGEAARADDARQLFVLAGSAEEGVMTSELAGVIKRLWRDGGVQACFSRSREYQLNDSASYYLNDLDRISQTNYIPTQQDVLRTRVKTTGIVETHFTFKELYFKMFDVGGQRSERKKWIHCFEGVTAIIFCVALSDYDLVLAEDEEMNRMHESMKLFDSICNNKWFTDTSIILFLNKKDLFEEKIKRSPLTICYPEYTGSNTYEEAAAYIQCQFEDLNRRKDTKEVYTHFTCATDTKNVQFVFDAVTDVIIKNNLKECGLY
HCMV NEC inh: inhibitors of HCMV UL50-UL53 nuclear egress complex interaction. 190,000 compounds, 0.15% hits. HTRF UL50-UL53 interaction, normalized percent inhibition. inhibition, % (concentration not given with the values). AID 1918969;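 active means both replicates at 50% or more, plus weaker picks with an unusually low signal ratio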;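 further: stock transfer was 100 nL into about 20 µL; 0% = negative control wells and 100% = wells with untagged competitor protein; inactives centre near -12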
Sa growth 42C: S. aureus growth inhibition. S. aureus RN4220 growth, OD600, 20 h, 42 °C; hits give low values. relative growth, % (concentration not given with the values). 170,000 compounds, 0.53% hits. AID 720641;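 active means growth at 42 °C up to 50% and 20 or more points under that at 30 °C, or under 10% at both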;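 further: 300 nL library stock went into each well; scaled to the means of positive and negative controls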
Sa growth 42C second temp: also measured in Sa growth 42C; calls as there; relative growth, %; measured here: growth at 30 °C;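 optical density after 20 h as mean of two plates; 100% = untreated growth and lower means inhibition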
* hit, by the source's call; / = no result given; & = joins results of further samples. Only part of the results is shown; the hit share may differ from the screen's.

SMILES	GIV-Gai inh	HCMV NEC inh	Sa growth 42C	Sa growth 42C second temp
COC(=O)C1=C(N)OC(C)=C(C(=O)OCc2ccccc2)C12C(=O)Nc1ccccc12 (centres undefined)	103	-19	/	/
N#CSc1ccc(N)cc1	/	-44	91	69
O=C(COc1ccccc1)N1CCN(Cc2ccc(Br)cc2)CC1	101	-13	85	59
O=C(CN1CC(c2ccccc2)CC1=O)NCCc1ccccc1 (centres undefined)	103	/	96	85
COC(=O)C1=C(C)OC(N)=C(C#N)C12C(=O)Nc1ccc([N+](=O)[O-])cc12 (centres undefined)	99	-54	/	/
COCCOC(=O)C1=C(N)OC(C)=C(C(=O)OCc2ccccc2)C12C(=O)Nc1ccccc12 (centres undefined)	104	-16	/	/
c1ccc(C23CC4CN(CCN(C4)C2)C3)cc1	101	7	111	92
Nc1cnn(-c2ccccc2)c(=O)c1Cl	104	-22	102	94
Fc1ccc(Cl)cc1C1NCCc2[nH]cnc21 (centres undefined)	104	4	/	/
CCN1C(=O)N(c2ccccc2)P(=S)(N2CCCC2)c2cc3c(cc21)OCCO3 (centres undefined)	/	-22	93	89
Cc1ccc(NC(=O)CN2C(=O)CN=C(c3ccccc3)c3ccccc32)c(C)c1	105	-14	96	85
c1ccc(Cn2ccnc2)cc1	105	0&-94	84&90	85&86
Cc1ccc(CN2C(=O)c3ccccc3Sc3ccc(C(=O)N4CCC5(CC4)OCCO5)cc32)cc1	100	/	53	42
CCOC(=O)C1C2NC(=S)N(c3ccccc3)C1(C)Oc1ccccc12 (centres undefined)	97	/	94	82
O=S(=O)(c1ccc(F)cc1)N1CN2CCN(C2)C1	119	-56	81	69
COc1cc(C2c3cc4c(c(O)c3CC3COC(=O)C32)OCO4)cc(OC)c1O (centres undefined)	/	3	113	82
CCN1C(=O)C(=Cc2ccc(O)c(I)c2)C(=O)N(CC)C1=S	129	0	65	61
CC1CC(C)CN(c2nc3ccccc3c(=O)n2-c2ccc(Cl)cc2)C1 (centres undefined)	104	/	120	89
O=C(Cc1cccc(F)c1)N1CCN(CC(=O)N2CCCC2)CC1	/	-17	84	94
O=C1OCCC1Sc1ccc(Cl)cc1 (centres undefined)	107	-6	106	99
O=C(Nc1ccc2c(c1)OCO2)c1cccn(Cc2ccccc2)c1=O	102	/	144	86
Clc1ccc(CN2CCN(Cc3ccccc3)CC2)cc1	106	18	118	110
CN1CCC(NC2C3CC4CC(C3)CC2C4)CC1 (centres undefined)	104	-11	108	111
C=CCN1CCN(C(=O)Cc2cccs2)CC1	102	3	95	98
O=C1C(=Cc2ccco2)C(=O)N(c2ccccc2)C(=O)N1c1ccccc1	133	9	98	95
(continued)
SMILES	GIV-Gai inh	HCMV NEC inh	Sa growth 42C	Sa growth 42C second temp
CCN(CC)C(=O)c1ccc(NC(=O)Cn2nc(-c3ccccc3)c3ccccc3c2=O)cc1	107	4	98	93
CCn1nc(-c2ccccc2)nc2c(=O)n(C)c(=O)nc1-2	19*	88*	0.3*	0.2*
CCOc1ccccc1NC1=NC(C)CS1 (centres undefined)	/	-20	75	92
CCOc1cc(C=C2C(=O)N(C)C(=O)N(C)C2=O)cc(Cl)c1OCc1ccccc1	98	-12	/	/
CC1CN(C)C(C)CC1n1[nH]c(=O)cc1N (centres undefined)	/	-8	79	97
Cc1ccccc1NC(=O)c1cc(-c2ccccc2)n(CCCN2CCOCC2)c1C	106	-2	101	69
Cc1cccc(C)c1NC1=NCCS1	103	-35	90	88
O=C1CC(c2cnc[nH]2)C2(CCCCC2)O1 (centres undefined)	105	-10	107	114
Cc1ccc2c(c1)CNc1ccccc1O2	98	-24	95	70
Cc1ccc(N2C(=O)c3cc(N(C)C)ccc3P2(=O)N2CCOCC2)cc1 (centres undefined)	/	-5	100	94
NC(=O)CCN1CCCCC1c1cccnc1 (centres undefined)	104	5	94	96
CCOC(=O)c1c(N)c[nH]c1NCc1ccc(Cl)nc1	/	-4	81	86
O=C1NCN(c2ccccc2)C12CCN(CC1COc3ccccc3O1)CC2 (centres undefined)	104&97	-33&-4&-10	93	82
CCOc1cccc(C(O)CNC)c1 (centres undefined)	100	-19	114	104
O=C1/C(=C/c2c(F)cccc2Cl)N2CCC1CC2	100	0	/	/
C[N+](C)(C)CC(=O)[O-]	/	-36	91	89
CC12C=CC(C)(O1)C1C(=O)N(c3ccc(Cl)c(C(F)(F)F)c3)C(=O)C12 (centres undefined)	102	-10	/	/
Cc1ccccc1NC1=NCCCS1	/	-26	108	82
CC(O)CN1CC2CC(C1)c1cccc(=O)n1C2 (centres undefined)	/	-4	102	87
O=C(c1ccccc1)N1CCC2(CC1)OCCO2	98	-11	93	93
Cc1nn(Cc2ccccc2)c(Cl)c1C(=O)OCC(=O)N(C)C1CCS(=O)(=O)C1 (centres undefined)	/	-5	86	99
CC12CC[C@@H]3C(=O)CCC(O)CC(=O)CC[C@H]3C1(O)CCC2C1=CC(=O)OC1 (some centres undefined)	110	-6	95	90
CN[C@@H]1[C@@H](O)[C@@H](O[C@@H]2[C@@H](O)[C@H](O[C@H]3O[C@H]([C@@H](C)NC)CC[C@H]3N)[C@@H](N)C[C@H]2N)OC[C@]1(C)O	103	-23	/	/
COc1cc(C(O)CN)ccc1O (centres undefined)	94	-26	/	/
CN(C)C(=O)Oc1ccc(Br)cc1C(=O)Nc1ccc(F)cc1	104	-7	60	27

In another format: entries from further up
SMILES | GIV-Gai inh | HCMV NEC inh | Sa growth 42C | Sa growth 42C second temp
CCN(CC)C(=O)c1ccc(NC(=O)Cn2nc(-c3ccccc3)c3ccccc3c2=O)cc1 | 107 | 4 | 98 | 93
CCn1nc(-c2ccccc2)nc2c(=O)n(C)c(=O)nc1-2 | 19* | 88* | 0.3* | 0.2*
CCOc1ccccc1NC1=NC(C)CS1 (centres undefined) | / | -20 | 75 | 92
CCOc1cc(C=C2C(=O)N(C)C(=O)N(C)C2=O)cc(Cl)c1OCc1ccccc1 | 98 | -12 | / | /
CC1CN(C)C(C)CC1n1[nH]c(=O)cc1N (centres undefined) | / | -8 | 79 | 97
Cc1ccccc1NC(=O)c1cc(-c2ccccc2)n(CCCN2CCOCC2)c1C | 106 | -2 | 101 | 69
Cc1cccc(C)c1NC1=NCCS1 | 103 | -35 | 90 | 88
O=C1CC(c2cnc[nH]2)C2(CCCCC2)O1 (centres undefined) | 105 | -10 | 107 | 114
Cc1ccc2c(c1)CNc1ccccc1O2 | 98 | -24 | 95 | 70
Cc1ccc(N2C(=O)c3cc(N(C)C)ccc3P2(=O)N2CCOCC2)cc1 (centres undefined) | / | -5 | 100 | 94
NC(=O)CCN1CCCCC1c1cccnc1 (centres undefined) | 104 | 5 | 94 | 96
CCOC(=O)c1c(N)c[nH]c1NCc1ccc(Cl)nc1 | / | -4 | 81 | 86
O=C1NCN(c2ccccc2)C12CCN(CC1COc3ccccc3O1)CC2 (centres undefined) | 104&97 | -33&-4&-10 | 93 | 82
CCOc1cccc(C(O)CNC)c1 (centres undefined) | 100 | -19 | 114 | 104
O=C1/C(=C/c2c(F)cccc2Cl)N2CCC1CC2 | 100 | 0 | / | /
C[N+](C)(C)CC(=O)[O-] | / | -36 | 91 | 89
CC12C=CC(C)(O1)C1C(=O)N(c3ccc(Cl)c(C(F)(F)F)c3)C(=O)C12 (centres undefined) | 102 | -10 | / | /
Cc1ccccc1NC1=NCCCS1 | / | -26 | 108 | 82
CC(O)CN1CC2CC(C1)c1cccc(=O)n1C2 (centres undefined) | / | -4 | 102 | 87
O=C(c1ccccc1)N1CCC2(CC1)OCCO2 | 98 | -11 | 93 | 93
Cc1nn(Cc2ccccc2)c(Cl)c1C(=O)OCC(=O)N(C)C1CCS(=O)(=O)C1 (centres undefined) | / | -5 | 86 | 99

Other records follow:
SMILES	GIV-Gai inh	HCMV NEC inh	Sa growth 42C	Sa growth 42C second temp
S=C(S)N1CCCCC1	106	1	53	41
CC(C)CCCn1c(O)c(/C=C2\C=CC=N2)c(=O)[nH]c1=O	/	-39	91	85
NP1(=O)C=C(c2ccccc2)OC(c2ccccc2)=C1	/	2	101	95
C=CCN1C(=O)/C(=C\c2ccc(N3CCOCC3)cc2C)C(=O)NC1=S	108	-12	95	35
CC1(C)NN1CCCN1NC1(C)C (centres undefined)	/	-9	88	93
CCOP(=S)(Nc1cccc(F)c1)OCC	99	117	79	97
CCOC(=O)C1=C(N)OC(C)=C(C(=O)OC)C12C(=O)Nc1ccccc12 (centres undefined)	103	-8	/	/
COc1ccc(N=C2SCCCN2C)cc1	101	3	92	96
CC1CC(C)CN(CC(=O)Nc2cccnc2Cl)C1 (centres undefined)	/	-33	61	90
COc1cc(COC(=O)N[C@@H](Cc2c[nH]c3ccccc23)C(=O)O)cc(OC)c1	101	-37	95	87
Cc1ccc(-c2nn3c(=O)cc(CN4CCN(C(=O)COc5ccc(C)c(C)c5)CC4)nc3s2)cc1	105	/	92	83
CC1(C)CC(=O)C(C2(O)C(=O)NC(=O)NC2=O)=C(O)C1	99	63*	104	75
COc1cccc(N2C(=O)/C(=C/c3ccsc3)C(=O)NC2=S)c1	100	/	93	96
C[N+]1(C)CCN(c2ccccc2)CC1	108	-61&-10	90	91
C=C1C2CC3(C[C@H]4C5C6(C3CC2=O)C4[N+]([O-])(CC)C[C@]5(C)CC[C@@H]6O)[C@@H]1O (some centres undefined)	104	-19	102	94
c1cc2c(cc1CCNC1CCCCCC1)OCO2	97	-7	97	93
Oc1ccc(C2(c3ccc(O)cc3)CCCCC2)cc1	101	-7	115	69
COc1cccc(C2C(C#N)=C(N)Oc3c2c(=O)oc2ccccc32)c1 (centres undefined)	107	50	98	97
O=C(COC(=O)Cc1ccccc1)Nc1ccc(Cl)cn1	/	-48	79	84
C=CCN1CCN(C(=O)Cc2cccc(C)c2)CC1	108	-4	100	102
CC(=O)NCCc1c[nH]c2ccccc12	103	-9&-21	/	/
COC(=O)C1=C(N)OC(c2ccccc2)=C(C(C)=O)C12C(=O)Nc1ccc(Br)cc12 (centres undefined)	100	-21	/	/
COc1ccc(C=C2C(=O)NC(=O)NC2=O)cc1OCc1ccc(Cl)cc1Cl	101	-7	/	/
CCOC(=O)C1=C(N)c2ccccc2CC12CCCCC2	/	-14	113	88
Cc1ccccc1-n1c(/C=C/c2c(C)[nH]c3ccccc23)nc2ccccc2c1=O	113	-12	111	86
Carrying on:
SMILES	GIV-Gai inh	HCMV NEC inh	Sa growth 42C	Sa growth 42C second temp
CNC1CCC(C)CC1 (centres undefined)	/	-13	103	84
CC(C)N1CCC2(CC1)NCCc1[nH]cnc12	102	-23	/	/
CC1(C)COC(Nc2ccc(Cl)c(Cl)c2)=N1	/	-17	146	85
N#CC(C#N)=Cc1ccc(N2CCCC2)cc1	120	-42	119	72
C=CCn1c(O)c(C=NCC)c(=O)[nH]c1=S	109	6	99	115
Cn1cc(CC(=O)N2CCN(C3CCCCC3)CC2)c2ccccc21	102	0	109	91
COc1cccc(C(c2c(O)[nH]c(=S)[nH]c2=O)N2CCOCC2)c1OC (centres undefined)	99	/	86	88
CN1CCN(Cc2ccc[nH]2)CC1	/	-3	111	84
CN1C2CCC1CC(OC(=O)CCN1CCCC1)C2 (centres undefined)	103	-15	124	82
N#Cc1ccc(NC(=O)CON2C(=O)CCC2=O)cc1Cl	/	-28	99	90
COc1cc2c(cc1OC)C(C)NCC2 (centres undefined)	101	-15	/	/
O=C1NC(=O)C(C(CC(=O)c2ccccc2)c2ccccc2)C(=O)N1 (centres undefined)	101	-37	104	80
CN(C)C(=O)Oc1ccc2ccc(OC(=O)N(C)C)cc2c1	96	-21	97	85
O=c1c2ccccc2nc(CO)n1-c1ccc2c(c1)OCO2	/	-4	77	93
O=c1c2ccccc2nc(/C=C/c2cccc3ccccc23)n1-c1ccccc1Cl	103	/	95	91
CCOP1(=S)Oc2cc3c(cc2C(C(=O)OC)(C(F)(F)F)O1)OCO3 (centres undefined)	108	-16	95	83
c1csc(CN2CCNCC2)c1	/	-4	111	94
CCC(=O)Nc1ccc(N2CCN(C)CC2)c(Cl)c1	106	-33	99	94
C=C(C)[C@H]1CN[C@H](C(=O)O)[C@H]1CC(=O)O	103	16&-18&-18&6	/	/
Cc1oc(-c2ccccc2)nc1CN1C(=O)CN=C(c2ccccc2)c2ccccc21	101	2	104	101
O=C(c1ccc(Cl)cc1)C1CN(Cc2ccco2)CCC1(O)c1ccc(Cl)cc1 (centres undefined)	/	20	77	94
COc1ccc(C(=O)C(C)(C)NO)cc1	103	-9	102	81
Cc1c(C#N)c2nc3ccccc3n2c(=O)/c1=C\Nc1ccc(N2CCOCC2)c(Cl)c1	57*	/	85	86
c1ccc2cc(CNCCc3ccc4c(c3)OCO4)ccc2c1	/	1	106	94
COc1ccc(C2c3cccn3-c3ccccc3CN2C(=O)Nc2ccc(C)c(C)c2)cc1 (centres undefined)	112	14	/	/
CCOC(=O)C1CCN(Cc2ccccc2)CC1	99	-7	112	108
Cc1ccccc1CN1C(=O)C(C)N=C(c2ccccc2)c2ccccc21 (centres undefined)	103	/	96	89
CCC(=O)c1ccc(OC(=O)N(C)c2ccccc2)cc1	108	9	107	101
